# Source: PubChem (several laboratories)
# GPR35 arrestin U2OS = GPR35 antagonists blocking zaprinast-driven arrestin recruitment, primary screen, imaging, U2OS, beta-arrestin-GFP, zaprinast agonist (AID 2058); G-protein coupled receptor 35 (Homo sapiens); U2OS GPR35 beta-arrestin-GFP translocation imaging, zaprinast antagonism; higher % means a stronger effect; one-dose inhibition, % at 10 µM; IC50 in µM for titrated hits; hit rate 0.052% among 290,000;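 active = inhibition of at least 50% with at least 30 cells and total cytoplasm GFP at most 10,000,000; inconclusive = under 30 cells or total GFP of 10,000,000 plus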
# HIV fusion peptide = inhibitors of HIV fusion peptide binding, primary screen, biochemical, uHTS, fluorescence dequenching (AID 1986); cell-free peptide binding, fluorescence dequenching, 30 min; higher % means a stronger effect; inhibition, % at 20 µM; hits with a dose series show IC50 in µM; hit rate 0.3% among 290,000; in the data active = inhibition mostly above about 52%, no sharp cut-off; inactive = mostly below about 76%; also: some results filed as inactive read as strong as hits
# NS5 inhibitors = Dengue-2 NS5 methyltransferase inhibitors, primary screen, biochemical, confirmation dose response (AID 588689); Genome polyprotein (Dengue virus type 2 (strain 16681-PDK53)); Dengue-2 NS5 methyltransferase capping enzyme assay, biochemical; higher % means a stronger effect; one-dose inhibition, % at 25 µM; IC50 in µM for titrated hits; hit rate 0.3% among 340,000; in the data active = a potency from the dose series; inconclusive = inhibition above about 29% without an active follow-up result
# GPR55 activation = GPR55 agonists via beta-arrestin recruitment, primary screen, imaging, U2OS cells, beta-arrestin-GFP redistribution (AID 1961). U2OS GPR55 beta-arrestin-GFP redistribution imaging; higher % means a stronger effect. G-protein coupled receptor 55 (Homo sapiens). one-dose activation, % at 10 µM; EC50 in µM for titrated hits. hit rate 0.048% among 290,000;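 active = activation above 40% with more than 50 cells counted in the well; inconclusive = wells holding fewer than 50 cells, flagged as toxic or sparse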;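 also: U2OS osteosarcoma cells stably expressing GPR55 and beta-arrestin-GFP; plate controls were DMSO negative control for no effect and LPI positive control for full effect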
# KOR beta-arrestin = KOR agonists, beta-arrestin recruitment, primary screen, cell-based, luminescence, uHTS (AID 1777). hit rate 0.02% among 280,000. one-dose activation, % at 10 µM; EC50 in µM for titrated hits. Kappa-type opioid receptor (Homo sapiens). KOR beta-arrestin recruitment, luminescence; higher % means a stronger effect; in the data active = activation above about 50%, passing the limit was not always enough; also: a part of the inactive calls stands beside numbers as strong as those of hits
# West Nile virus CPE = West Nile virus antiviral activity, cell-based, CPE readout (AID 1621); West Nile virus-infected cells, CPE inhibition; higher % means a stronger effect; CPE inhibition, % at 10 µM, or IC50 in µM where a hit was titrated; hit rate 0.02% among 290,000; in the data active = a potency from the dose series; inconclusive = CPE inhibition mostly from about 3.7% at the one dose, without a potency; inactive = the rest, 99 in 100 with CPE inhibition below about 2.2%; also: strong numbers were not always called active
# GPR55 LPI antagonism = GPR55 antagonists blocking LPI-driven arrestin recruitment, primary screen, imaging, U2OS, beta-arrestin-GFP, LPI agonist (AID 2013); one-dose inhibition, % at 10 µM; IC50 in µM for titrated hits; hit rate 0.13% among 290,000; U2OS GPR55 beta-arrestin-GFP translocation imaging, LPI antagonism; higher % means a stronger effect; G-protein coupled receptor 55 (Homo sapiens);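 active = spots per cell inhibited over 60%, with over 100 cells counted and total cytoplasm intensity under 500,000; inconclusive = wells with under 100 cells, flagged as likely toxic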;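 also: U2OS cells stably carrying GPR55 and arrestin-GFP stimulated by 5 µM LPI near EC80; imaged beta-arrestin-GFP aggregate spots per cell after agonist stimulation; plate controls were LPI-stimulated DMSO wells for no effect and DMSO wells without LPI for full effect; some results filed as inactive read as strong as hits; confirmed hits need IC50 under 10 µM and bright autofluorescent wells are also inconclusive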
# NS5 inhibitors pilot replicate = recorded beside NS5 inhibitors, whose call it bears; inhibition, %; measured here: pilot screen replicate inhibition
# Starred values were filed as active, the others as inactive; ? = inconclusive; · = not tested or not shown.
SMILES,GPR35 arrestin U2OS,HIV fusion peptide,NS5 inhibitors,GPR55 activation,KOR beta-arrestin,West Nile virus CPE,GPR55 LPI antagonism,others
Cc1ccccc1NC(=O)c1cccc(Cn2cc(Br)c([N+](=O)[O-])n2)c1,10%,-1.6%,6%,-0.1%,-0.4%,-0.3%,18%,
CCCn1c(NC(=O)C2CCN(S(=O)(=O)c3cccs3)CC2)nc2ccccc21,2%,0.3%,-1%,-0.3%,-2.6%,2.7%,4%,
COc1ccc2cc3cc(C(=O)NCCc4ccc(OC)c(OC)c4)oc3nc2c1,-5%,2.4%,1%,-0.1%,9.5%,·,-8%,
Cn1c(NCCN2CCOCC2)nc2c1c(=O)n(Cc1cccc(Cl)c1)c(=O)n2C,-4%,-2.1%,-4%,0.0%,-1.8%,-0.1%,6%,
COc1cc(C(=O)Oc2ccc3c(c2)OCC3=O)cc(OC)c1OC,1%,-0.9%,-10%,-0.1%,-0.6%,0.2%,2%,
Cc1cc(=O)oc(C)c1C(=O)OCC(=O)c1ccc(Cl)cc1,20%,0.0%,5%,-0.1%,-1.3%,0.1%,2%,
O=C(c1cc2nc(-c3ccco3)cc(C(F)(F)F)n2n1)N1CCc2ccccc2C1,4%,4.6%,15%,0.3%,-3.4%,·,14%,
CC(C)CCNC(=O)Cc1ccccc1[N+](=O)[O-],10%,-1.2%,3%,-0.1%,1.3%,-0.2%,2%,
CC(=O)Nc1ccnc(-c2cccnc2)n1,8%,0.9%,-6%,0.0%,-0.1%,0.2%,-2%,
CCCN1C(=O)/C(=C/c2ccc(C)o2)SC1=Nc1ccc(OC)cc1,12%,9.0%,16%,0.0%,-3.0%,-0.1%,-6%,
COc1ccc(Br)cc1C(=O)Nc1ccc(Cc2ccncc2)cc1,9%,4.2%,-4%,-0.1%,0.0%,0.2%,-21%,
O=C(CC(=O)NC1CCCCC1)N/N=C/c1ccc(Cl)cc1,7%,-1.1%,-6%,-0.1%,3.7%,-0.1%,·,
COc1ccc2oc(-c3ccc(C)c(NC(=O)CSc4ccc(Cl)cc4)c3)nc2c1,5%,-3.0%,-2%,-0.2%,-1.0%,-0.3%,1%,
COC(=O)c1ccc(NC(C)=O)o1,15%,1.4%,-2%,0.0%,-1.6%,0.1%,-3%,
CC1C(=NO)C(C)C(c2ccc(N(C)C)cc2)NC1c1ccc(N(C)C)cc1 (stereo not drawn),-1%,1.4%,-3%,-0.3%,3.9%,·,6%,
CC(CC(=O)Nc1nc2ccccc2[nH]1)c1ccccc1 (stereo not drawn),-16%,1.0%,3%,-0.1%,4.5%,-0.2%,22%,
Cc1nnsc1NC(=O)OCc1ccc(C(F)(F)F)cc1,1%,2.1%,-5%,0.3%,2.1%,-0.1%,1%,
Cc1ccc(NC(CNS(=O)(=O)c2ccc(Cl)cc2)c2ccccc2)cc1 (stereo not drawn),2%,-0.3%,-3%,-0.1%,-0.8%,-0.5%,57%,
CCc1ccc2nc(NC(=O)c3cc(C)on3)sc2c1,-5%,1.0%,5%,-0.1%,-3.2%,0.5%,-5%,
CC(=O)Nc1cc(C(=O)N2CCCC2)ccc1S(=O)(=O)c1ccc(C)cc1,13%,-2.4%,2%,-0.1%,4.6%,1.2%,-2%,

# Quoted at random: 6 records from the list, in no set order.
SMILES,GPR35 arrestin U2OS,HIV fusion peptide,NS5 inhibitors,GPR55 activation,KOR beta-arrestin,West Nile virus CPE,GPR55 LPI antagonism,others
Cc1nnsc1NC(=O)OCc1ccc(C(F)(F)F)cc1,1%,2.1%,-5%,0.3%,2.1%,-0.1%,1%,
Cn1c(NCCN2CCOCC2)nc2c1c(=O)n(Cc1cccc(Cl)c1)c(=O)n2C,-4%,-2.1%,-4%,0.0%,-1.8%,-0.1%,6%,
O=C(CC(=O)NC1CCCCC1)N/N=C/c1ccc(Cl)cc1,7%,-1.1%,-6%,-0.1%,3.7%,-0.1%,·,
Cc1ccc(NC(CNS(=O)(=O)c2ccc(Cl)cc2)c2ccccc2)cc1 (stereo not drawn),2%,-0.3%,-3%,-0.1%,-0.8%,-0.5%,57%,
CCCN1C(=O)/C(=C/c2ccc(C)o2)SC1=Nc1ccc(OC)cc1,12%,9.0%,16%,0.0%,-3.0%,-0.1%,-6%,
COc1ccc2cc3cc(C(=O)NCCc4ccc(OC)c(OC)c4)oc3nc2c1,-5%,2.4%,1%,-0.1%,9.5%,·,-8%,

# Following part.
SMILES,GPR35 arrestin U2OS,HIV fusion peptide,NS5 inhibitors,GPR55 activation,KOR beta-arrestin,West Nile virus CPE,GPR55 LPI antagonism,others
CC(=O)N1N=C(c2ccc3nccnc3c2)CC1c1ccccc1 (stereo not drawn),2%,-1.3%,-2%,-0.2%,-1.1%,0.2%,-1%,
COC(=O)Cn1c(=O)c2c(nc(Br)n2Cc2ccccc2Cl)n(C)c1=O,-2%,-2.9%,-2%,-0.1%,-0.7%,-0.3%,21%,
Cc1cccc(OCCCCCn2ccnc2)c1,-6%,0.4%,-7%,-0.2%,0.7%,-1.3%,4%,
c1ccc(-c2ccc3c(c2)c2c4n3CCN=C4CCC2)cc1,38%,-1.5%,-3%,-0.3%,1.5%,-0.5%,22%,NS5 inhibitors pilot replicate=-5.5
COc1cc(NC(=O)c2c(F)cccc2F)nc(OC)n1,9%,-3.2%,-5%,0.0%,-2.3%,0.5%,17%,
CCC(C)[C@H](NC(=O)OC(C)(C)C)c1nnc(SCc2c(C)[nH]c(=O)[nH]c2=O)o1 (stereo partly drawn),27%,-1.8%,3%,0.2%,1.2%,0.2%,-8%,
Cc1ccccc1OCC(O)Cn1c2ccccc2c2ccccc21 (stereo not drawn),-9%,-3.9%,-6%,0.2%,-2.5%,1.0%,9%,
COc1ccc(C2(C)NC(=O)N(CC(=O)Nc3ccc4c(c3)OCO4)C2=O)cc1OC (stereo not drawn),2%,2.4%,1%,0.1%,-0.7%,0.1%,1%,
O=C(CSCc1ccc(F)cc1)N1CCN(c2ccccc2)CC1,-16%,-2.6%,-2%,-0.2%,1.3%,-1.3%,24%,
CCOc1ccc(-c2nnc3ccc(SC)nn23)cc1,17%,2.1%,2%,0.0%,-3.5%,0.0%,5%,
Nc1ccc(Cc2ccc(N)c(C(=O)O)c2)cc1C(=O)O,9%,5.8%,6%,-0.1%,11%,-0.2%,-8%,
Cc1ccc(S(=O)(=O)N[C@H](C(=O)N2CCC(C(=O)N3CCC[C@H]3C(=O)O)CC2)C(C)C)cc1,12%,-0.3%,-1%,-0.2%,-0.4%,0.6%,0%,
CCOc1c2ccc(C(=O)NCCCCc3ccccc3)cc2nn1C,-9%,-1.4%,-1%,0.0%,3.1%,0.1%,-13%,
CCn1c(SCc2ccc([N+](=O)[O-])cc2)nnc1C(C)NC(=O)c1ccccc1Br (stereo not drawn),-14%,-0.2%,-1%,-0.1%,14%,-0.4%,-9%,
Cc1ccccc1CS(=O)(=O)Cc1ccc(C(=O)NCCCN2CCOCC2)o1,2%,2.4%,-4%,-0.1%,3.1%,·,-3%,
O=C(NNc1cccc(Cl)n1)Nc1ccc(Cl)cc1,-2%,-3.2%,-7%,0.3%,0.9%,0.0%,-4%,
CC(C)c1ccc(NC(=O)COC(=O)C2=COCCO2)cc1,6%,-2.6%,-10%,-0.2%,-1.5%,0.1%,2%,
Cc1ccccc1-n1ncc2c([N+](=O)[O-])cc([N+](=O)[O-])cc21,0%,-3.0%,3%,0.3%,1.7%,2.0%,21%,
Oc1ccccc1/C=N/n1c2ccccc2c2ccccc21,8%,1.3%,-3%,-0.1%,2.7%,0.1%,-8%,
COc1ccc2c(c1)-c1nc(NC(=O)c3cccs3)sc1CC2,28%,0.2%,19%,0.0%,3.3%,0.3%,4%,
CCCc1cc(=O)oc2cc(OCC(=O)N3CCc4ccccc43)ccc12,-1%,0.6%,0%,-0.1%,-1.5%,0.1%,20%,
CC(=O)NNc1nc2ccccc2s1,6%,0.0%,-1%,-0.1%,0.3%,-0.5%,9%,
CN(NC(=O)NN)c1ncc(C(F)(F)F)cc1Cl,-8%,-2.7%,-12%,-0.1%,0.8%,1.0%,0%,
O=C(C1CCCCN1S(=O)(=O)c1ccccc1)N1CCCCC1 (stereo not drawn),-6%,-1.3%,-3%,-0.1%,6.3%,0.7%,0%,
COc1nnc(OC)c2ccccc12,12%,0.2%,-3%,0.3%,-4.3%,0.0%,1%,
O=S(=O)(NCc1cccnc1)c1ccc(Cl)s1,0%,-1.8%,-4%,-0.1%,2.0%,-0.2%,7%,
O=C(O)C1CC=CCC1C(=O)NCc1cn2ccccc2n1 (stereo not drawn),17%,-1.2%,0%,-0.1%,-0.7%,0.1%,8%,
COc1ccc(Br)cc1C(=O)Nc1cc(C)cc(C)c1,9%,-1.6%,-3%,0.0%,6.2%,-0.4%,8%,
CCCc1cc(C(N)=O)c(NC(C)=O)s1,7%,1.5%,0%,-0.1%,-5.4%,0.0%,0%,
Cn1c(C(=O)O)c(CC(=O)NCC2COc3ccccc3O2)c2ccccc21 (stereo not drawn),15%,5.9%,-5%,0.3%,-2.8%,0.6%,7%,
Cc1nnc(C)n1/N=C/c1cccs1,1%,-0.2%,-1%,0.2%,6.2%,0.0%,3%,
CCOC(=O)c1cc(-c2ccc(OC)cc2F)nc2c1c(C)nn2CCC#N,-7%,-0.4%,-3%,0.0%,6.3%,13%,·,
COc1ccc(NC(=O)N2CCC(C(=O)c3ccc(F)cc3)CC2)cc1,6%,0.0%,0%,0.2%,1.8%,0.1%,2%,
CCOC(=O)/C(C#N)=C/C1=C(N2CCCC2)CC(C)(CC)OC1 (stereo not drawn),8%,44%,-3%,-0.1%,1.0%,0.0%,6%,
O=C(N/N=C/c1ccncc1)c1nc(-c2ccccc2)n2c1CCCCC2,2%,-2.9%,-5%,0.0%,-1.9%,-0.3%,12%,
C/C(=N\NC(=O)Cc1ccccc1)c1cccs1,22%,-2.9%,-2%,-0.1%,-2.8%,-0.9%,5%,
C[C@H](NC(=O)Cn1cncn1)c1ccccc1,13%,-3.3%,-10%,0.4%,6.5%,-0.3%,-2%,NS5 inhibitors pilot replicate=-4.8
CC(=O)c1c(C)[nH]c(C(=O)COc2cc(C)cc(C)c2)c1C,13%,-1.5%,-3%,-0.1%,1.6%,0.3%,22%,
COc1ccc(C(=O)NC(=S)Nc2cccc(Cl)c2N2CCOCC2)cc1[N+](=O)[O-],6%,3.9%,-10%,-0.1%,-3.8%,?,-4%,
CC(=O)c1c(C)[nH]c(C(=O)OCC(=O)N(C)C)c1C,-21%,-2.6%,0%,0.3%,9.1%,-0.4%,-4%,
COc1cccc(-n2c(C)n[nH]c2=O)c1,3%,-3.2%,-2%,0.1%,1.4%,0.6%,3%,
Cn1cc([N+](=O)[O-])c(C(=O)Nc2ccc(Br)cn2)n1,-7%,1.1%,2%,0.0%,-3.0%,?,-3%,
COc1ccc(OC)c(NC(=O)CSc2nc3ccccc3cc2Cc2ccccc2)c1,10%,0.1%,2%,0.2%,1.9%,-1.1%,-12%,

# These rows are one share of the data; rates above refer to the full screens.
